# High-throughput results: PubChem, several laboratories
# ALR H2O2 inh: inhibitors of human sulfhydryl oxidase ALR; P55789; purified ALR, DTT oxidation, H2O2 HRP-luminol luminescence; inhibition, % (concentration not given with the values); 290,000 tested, 3.8% active;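 active means mean and each replicate at 75% or more; inconclusive means only one of the two met; inactive means neither met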;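 further: stock transfer was 7.5 nL into about 7.5 µL; 0% = neutral wells and 100% = wells with inactivated enzyme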
# Target sequence (P55789 whole entry, looked up): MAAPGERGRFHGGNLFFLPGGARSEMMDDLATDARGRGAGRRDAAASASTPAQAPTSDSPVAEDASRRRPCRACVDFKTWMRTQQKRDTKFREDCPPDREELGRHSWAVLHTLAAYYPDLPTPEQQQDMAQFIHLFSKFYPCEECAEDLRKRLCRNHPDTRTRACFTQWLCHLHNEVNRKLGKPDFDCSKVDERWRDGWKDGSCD
# B2AR ag: human beta-2 adrenergic receptor agonism by FAP; P07550; Am2.2-beta2AR cells, FAP receptor internalization, flow cytometry; reference of the scale not given here; response, % (test concentration not listed); 340,000 tested, 0.43% active; AID 504454;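 active means response above a set limit, near 3 SD of response in nonfluorescent compounds, cut at about 42% in these data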;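 further: stock transfer was 100 nL into about 11 µL; a reference agonist was the positive control; negative values mostly stem from fluorescent compounds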
# HNF4A DNA FP: change in binding of human HNF4 alpha to DNA. HNF4a-FITC DNA binding, fluorescence polarization, 1 h. P41235. activity change, % at 10 µM. 360,000 tested, 0.3% active; in the data active means activity change above about 30%, passing the limit was not always enough;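 further: controls were the assay level and a saturating level of protein; the project sought stronger binding though the title names inhibitors; some compounds called inactive have numbers as strong as hits; positive values seem to mean higher polarization but the record does not say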
# Target sequence (P41235 whole entry, looked up): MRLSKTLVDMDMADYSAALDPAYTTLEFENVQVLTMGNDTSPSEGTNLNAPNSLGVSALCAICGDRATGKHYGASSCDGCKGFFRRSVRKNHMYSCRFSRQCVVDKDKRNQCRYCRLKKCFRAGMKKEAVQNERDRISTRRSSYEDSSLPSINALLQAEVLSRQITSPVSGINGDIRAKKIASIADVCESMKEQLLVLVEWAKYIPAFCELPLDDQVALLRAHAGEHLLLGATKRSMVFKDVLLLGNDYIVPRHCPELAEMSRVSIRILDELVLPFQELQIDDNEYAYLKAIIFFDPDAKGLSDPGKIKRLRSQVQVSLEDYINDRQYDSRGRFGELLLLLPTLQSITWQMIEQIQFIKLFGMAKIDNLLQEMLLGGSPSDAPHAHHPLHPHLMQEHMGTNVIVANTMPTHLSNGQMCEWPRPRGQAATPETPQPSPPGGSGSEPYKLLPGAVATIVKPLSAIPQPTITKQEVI
# Vif TR-FRET: HIV-1 Vif–A3G interaction blockers – biochemical, TR-FRET, GST-Vif 1-94, biotin-A3G peptide, dose response retest, primary screen (AID 1117319). TR-FRET GST-Vif / biotin-A3G peptide binding; higher % means a stronger effect; test concentration not given here; strong numbers were not always called active. one-dose inhibition, %; IC50 in µM for titrated hits. 260,000 tested, 0.57% active;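 active means above the screen mean plus three standard deviations and confirmed in dose response; inconclusive means results disagree or hit not tested in dose response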;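 further: Vif residues 1-94 fused to GST binding biotinylated APOBEC3G peptide 110-148; 0% = full assay without inhibitor and 100% = GST in place of GST-Vif; retest series ran down from 100 µM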
# LANA-H2B inh: blocks KSHV LANA binding to histone H2A/H2B. cell-free LANA-H2A/H2B peptide, fluorescence polarization. inhibition, % (no concentration beside the values). 320,000 tested, 0.6% active. AID 2629; in the data active means inhibition mostly above about 10%, no sharp cut-off; inactive means mostly below about 6.7%;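 further: stock transfer was 7.5 nL into about 10 µL; 0% = median of vehicle wells and 100% = median of positive control wells; one replicate is shown; the record names a cut of 25% in any replicate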
# RanGTP-Imp inh: inhibitors of RanGTP-importin-beta interaction, primary screen, biochemical, FRET, CFP-Ran, YFP-importin-beta, homogeneous; cell-free CFP-Ran/YFP-importin-beta FRET ratio; 300,000 tested, 1.1% active; AID 2216; inhibition, % (concentration not given with the values);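 active means most replicates above 15%; inconclusive means exactly half above 15%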;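 further: 0% = DMSO wells and 100% = Ran loaded with GDP instead of GTP; wells of about 40 µL received 100 nL stock; the first replicate is given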
# Calb FLC: affects C. albicans growth with fluconazole | C. albicans CaCi-2 (fluconazole-resistant clinical isolate) + fluconazole, Alamar Blue growth, 48 h | growth inhibition, % (concentration not given with the values) | 300,000 tested, 0.57% active;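 active means most replicates above 75%; inconclusive means exactly half above 75%; inactive means most below 75%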;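 further: all wells also contain fluconazole at 8 µg/ml as a sub-toxic cotreatment; 0% = median of DMSO wells and 100% = median of geldanamycin control wells; wells of about 8 µL received 7.5 nL stock; the first replicate is given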
# * = called active by the depositor; ? = inconclusive; nt = not tested or not shown.
# Each structure is followed by: ALR H2O2 inh	B2AR ag	HNF4A DNA FP	Vif TR-FRET	LANA-H2B inh	RanGTP-Imp inh	Calb FLC
> COc1ccc(NC(=O)CN(C)S(=O)(=O)c2cccc3cccnc23)cc1
 : 43.5	-4.2	-4.0	2.4%	-2.5	3.9	1.4
> CCc1ccc(N=CC2=C(O)CC(c3ccco3)CC2=O)cc1 (centres undefined)
 : 8.8	-6.8	3.0	-1.7%	2.7	1.4	-12.0
> Cc1csc(NC(=O)CCc2nc3ccccc3s2)n1
 : -8.7	-28.9	1.3	?	0.3	-5.7	-0.4
> CCN(CC(=O)Nc1ccc(NC(C)=O)cc1)C(=O)/C=C/c1ccc([N+](=O)[O-])cc1
 : -8.4	-3.5	1.5	2.1%	4.7	0.4	5.9
> CCNC(=S)N1CCn2cccc2C1c1ccc(F)cc1 (centres undefined)
 : -19.4	-3.4	-0.9	6.8%	-4.3	-1.9	-19.1
> O=C(c1ccc(-n2cncn2)c([N+](=O)[O-])c1)N1CCN(S(=O)(=O)c2ccc(F)c(F)c2)CC1
 : -131.9	3.2	-3.2	nt	1.2	0.1	-0.8
> COC(=O)CCN1CCN(S(=O)(=O)c2ccccc2Br)CC1
 : -3.8	-0.8	-3.8	-5.5%	-4.1	4.2	18.2
> CCCn1c(C)cc(C(=O)COc2ccc(-c3nnco3)cc2)c1C
 : -5.6	-5.0	-6.2	0.3%	0.1	-3.7	-5.0
> CC(C)=CC1C(C(=O)NCCOc2ccccc2)C1(C)C (centres undefined)
 : 3.4	-5.8	1.8	nt	1.5	-1.8	-1.4
> COC(=O)C1=C(C)n2nnnc2NC1c1cc2ccccc2o1 (centres undefined)
 : -6.1	-10.8	-2.3	-6.9%	-1.3	6.6	2.1
> C=CCNC(=O)N1CCc2[nH]c3ccc(F)cc3c2C1
 : -6.8	7.4	-7.3	-12.5%	-5.5	-15.3	9.1
> CCNc1nc(Oc2ccc(C(=O)OC)cc2)nc(N2CCOCC2)n1
 : -3.1	1.2	-4.2	nt	-0.8	-1.4	-0.9
> C/C(=N\O)C(=O)NCCN1CCCCC1
 : -1.4	7.8	0.2	24.1%	0.5	1.4	-4.7
> CCNC(=S)N1C2CCC1CC(NC(=O)NC1CCCCC1)C2 (centres undefined)
 : -1.8	-11.4	-1.1	-1.9%	9.2	-0.9	-11.4
> C#C[C@]1(O)CC[C@H]2[C@@H]3[C@H](C)CC4=C(CCC(=O)C4)[C@H]3CC[C@@]21C
 : -6.7	nt	nt	nt	-2.4	4.3	10.6
> CC(C)=CCCC(C)CN1CCC(N2CCC(C(=O)N3CCCC3)CC2)CC1 (centres undefined)
 : -10.1	-2.9	1.7	12.5%	-31.8	5.8	5.1
> Cc1ccc(NS(=O)(=O)c2ccc(/C=C/C(=O)O)cc2)cc1Cl
 : 17.2	0.4	0.2	nt	3.3	-4.9	-7.8
> CCc1cc2cc(C)ccc2nc1SCC(=O)NC1CCCC1
 : -7.2	-3.8	7.3	nt	-0.3	-1.7	-21.0
> COc1cccc(CNc2ccc3[nH]c(=O)[nH]c3c2)c1OCc1ccccc1Cl
 : 97.4*	11.7	1.8	nt	9.6	?	-7.3
> C=CCc1c(C)nc(C)nc1N/N=C/c1ccc(F)cc1
 : 3.7	2.9	-2.9	75.4%	2.8	3.9	-7.3
> C=CCNC(=O)C1=NN(c2c(F)c(F)cc(F)c2F)C(=O)CC1
 : 4.7	2.5	-1.3	1.8%	-1.8	3.8	5.7
> Cc1cc(NC(=O)COC(=O)[C@@H]2CCCN2C(=O)c2cccs2)no1
 : nt	6.7	-1.0	-0.7%	nt	nt	nt
> C=CCSc1nnc(NC(=O)C2CSC3(C)CCC(=O)N23)s1 (centres undefined)
 : 5.3	-1.7	4.0	-6.4%	-3.1	9.4	-7.4
> CC(=O)Nc1ccc2c3c(cccc13)C(=O)N(c1ccccc1)C2=O
 : 2.9	-5.9	-1.5	-7.5%	8.7	72.9*	-3.9
> Cc1ccc(OCCC(=O)OCC(=O)Nc2c(C)nn(-c3ccccc3)c2C)cc1
 : nt	-4.8	1.8	0.6%	nt	7.1	-1.8
> CCOC(=O)c1ccc(NC(=O)CCOc2ccccc2)cc1
 : nt	-9.1	0.6	1.4%	2.8	?	10.6
> CC(C)(C)c1n[nH]c(=S)n(N)c1=O
 : nt	-8.7	2.7	-7.4%	-2.9	2.0	-9.8
> O=C1N=C(N2CCOCC2)SC1=Cc1ccco1
 : nt	5.2	8.3	92.5µM*	nt	nt	nt
> COC(=O)CCCCCCCCC(O)CN1CCCCC1 (centres undefined)
 : -5.3	-4.2	3.9	8.0%	-3.3	1.1	0.7
> O=C(CCCN1C(=O)[C@H]2CC=CC[C@H]2C1=O)NCc1nc(-c2ccc(Cl)cc2)no1
 : -0.4	-6.2	3.4	nt	-1.8	4.9	4.1
> COc1ccc(S(=O)(=O)N2CCC(C(=O)Nc3cc(Cl)ccc3N3CCOCC3)CC2)cc1OC
 : -5.4	5.9	-2.0	-7.8%	0.6	1.7	-4.4
> COc1ccc(C2(SCC(N)C(=O)O)c3ccccc3-c3ccccc32)cc1 (centres undefined)
 : nt	2.4	-0.1	10.0%	nt	nt	nt
> COc1ccc(C(=O)CSc2nnc(C3CCCCC3)n2N)c(OC)c1
 : -3.9	6.2	3.9	9.9%	6.0	0.3	3.8
> COc1cc(C(=O)OCC(=O)Nc2cccc(S(=O)(=O)N3CCCC3)c2)ccc1OCC(C)C
 : 1.2	4.1	-2.8	3.1%	5.2	1.2	-5.4
> Cc1ccc(-c2cc(C(=O)N3CC(C)OC(C)C3)c3ccccc3n2)o1 (centres undefined)
 : nt	-7.4	4.3	-11.2%	-5.7	-4.1	1.1
> Cc1cc(C(=O)N2CCN(S(=O)(=O)c3ccccc3)CC2)c(C)o1
 : 1.3	-3.3	-0.7	-0.4%	-5.1	2.9	-5.2
> Cc1nnc(SCC(=O)NC(=O)Nc2ccc3c(c2)OCCO3)n1N
 : -7.6	-3.2	-6.7	nt	-4.5	5.8	-1.3
> Cc1ccc(-n2c(SCc3cn4ccsc4n3)nc3ccccc3c2=O)cc1
 : -1.1	-4.7	0.9	-4.7%	-1.0	1.9	nt
> OC(CN1CCCC(C(F)(F)F)C1)c1ccccc1 (centres undefined)
 : -1.6	8.4	-2.5	nt	-6.4	0.4	-4.0
> COc1ccc(NS(=O)(=O)c2cn(C)cn2)cc1Cl
 : -4.3	-1.4	5.5	nt	-1.0	5.8	7.1
> O=C(c1ccco1)N1CCN(C(=O)c2cn(-c3ccccc3)nc2-c2ccccc2)CC1
 : -2.0	-18.4	3.5	71.7%	1.4	nt	nt
> Cc1cc(C)cc(NC(=O)CSc2nnc(-c3ccccc3C)o2)c1
 : -0.7	3.1	4.8	27.4%	2.3	7.8	1.0
> CCCNC(=O)OCc1cccnc1Sc1ccc(C)cc1
 : nt	3.6	0.6	-0.9%	1.0	-0.5	?
> Cc1nn(C)c(C)c1-c1c(C#N)c(N)nc2c1CCCCCC2
 : -10.2	1.3	-3.7	8.6%	-6.9	-2.0	1.9
> Cc1cccc(-n2c(CNC(=O)c3ccc(S(=O)(=O)N(C)C)cc3)nnc2SCC(=O)Nc2ccc(F)cc2)c1
 : -0.8	7.9	0.7	21.6%	-1.2	2.0	6.0
> CCCCCNC(=O)c1ccc2c(=O)[nH]c3c(C(=O)NCC4CCCO4)sc(=S)n3c2c1 (centres undefined)
 : 29.1	-7.2	0.9	3.2%	2.3	-3.7	?
> O=C(N=c1nc2ccccn2s1)c1ccccc1
 : -9.9	-5.1	2.9	3.4%	-5.4	-2.7	-16.8
> O=C(CSc1nnnn1C1CCCC1)N1CCCc2ccccc21
 : 0.9	2.4	3.8	3.9%	0.1	1.1	-3.6
> CCc1nnc(NC(=O)c2ccc3c(c2)C(=O)N(CC(C)C)C3=O)s1
 : nt	nt	nt	31.1%	nt	?	-9.1
> Cc1ccc(-c2cc(C(=O)N3CCN(c4ncccn4)CC3)c3ccccc3n2)cc1
 : -11.7	2.9	-24.8	6.7%	0.9	6.9	-0.1
> Cc1cc(C)cc(NC(=O)OCCN2CCN(Cc3ccccc3)CCC2=O)c1
 : -8.8	5.9	-6.6	nt	-2.7	4.8	3.6
> COc1cccc(-c2cc(C(F)(F)F)n3ncc(C(=O)N4CCc5ccccc5C4)c3n2)c1
 : -10.1	-13.3	1.4	nt	-9.2	nt	0.2
> O=C(COC(=O)C1CCC1)Nc1cccc(S(=O)(=O)N2CCOCC2)c1
 : 19.8	-10.0	0.8	3.9%	1.3	3.2	-2.1
> CCOc1ccc2nc(NC(=O)CS(=O)(=O)c3ccccc3)sc2c1
 : -21.8	1.2	-0.9	1.1%	-1.5	1.4	0.2
> COCCOC(=O)c1c(C)nc(SCC(=O)Nc2ccc(C)cc2)c(C#N)c1-c1ccco1
 : -6.4	6.9	-2.5	-5.4%	-4.7	2.3	-1.8
> COc1ccc2oc(-c3ccccc3[N+](=O)[O-])cc(=O)c2c1
 : -4.1	-20.6	5.1	6.0%	1.5	0.3	23.3
> O=C(c1ccc(COc2c(F)c(F)c(F)c(F)c2F)o1)N1CCN(Cc2ccc3c(c2)OCO3)CC1
 : -7.8	-1.6	-2.4	?	1.5	-3.5	14.0
> N=c1n(Cc2ccccc2)c2ccccc2n1CC(O)c1ccco1 (centres undefined)
 : 6.6	-2.2	8.4	14.2%	0.7	3.3	-3.4
> CC(=O)Nc1cccc(OCC(=O)NCCC2=CCCCC2)c1
 : -7.7	-0.8	-1.8	-4.2%	1.1	0.4	1.3
> CCOc1ccc(/C=N/NC(=O)CC(=O)Nc2ccc(Cl)c(Cl)c2)cc1
 : nt	-1.4	1.9	?	2.4	1.1	-20.4
> COc1cc(/C=N/N=C2/NC(=O)C(CC(=O)O)S2)ccc1OCc1cccc(Cl)c1 (centres undefined)
 : 9.6	2.2	-4.3	-3.6%	7.0	2.9	4.7
> Cc1nnc(NC(=O)CN2C(=O)NC3(CCCC3)C2=O)s1
 : -1.6	2.8	4.3	-0.8%	2.6	-1.9	7.0
> CCC(C)c1ccc(NC(=O)NCCN2CCCCC2)cc1 (centres undefined)
 : -4.3	6.5	0.1	-0.8%	1.5	14.4	7.7

# Some of the entries above in a different format.
SMILES,ALR H2O2 inh,B2AR ag,HNF4A DNA FP,Vif TR-FRET,LANA-H2B inh,RanGTP-Imp inh,Calb FLC
Cc1cc(C)cc(NC(=O)CSc2nnc(-c3ccccc3C)o2)c1,-0.7,3.1,4.8,27.4%,2.3,7.8,1.0
Cc1nn(C)c(C)c1-c1c(C#N)c(N)nc2c1CCCCCC2,-10.2,1.3,-3.7,8.6%,-6.9,-2.0,1.9
CC(=O)Nc1cccc(OCC(=O)NCCC2=CCCCC2)c1,-7.7,-0.8,-1.8,-4.2%,1.1,0.4,1.3
CCCNC(=O)OCc1cccnc1Sc1ccc(C)cc1,nt,3.6,0.6,-0.9%,1.0,-0.5,?
COc1cc(/C=N/N=C2/NC(=O)C(CC(=O)O)S2)ccc1OCc1cccc(Cl)c1 (centres undefined),9.6,2.2,-4.3,-3.6%,7.0,2.9,4.7
CCOc1ccc2nc(NC(=O)CS(=O)(=O)c3ccccc3)sc2c1,-21.8,1.2,-0.9,1.1%,-1.5,1.4,0.2
